Compound activity: PubChem, several laboratories
eIF4H FP inh – inhibitors of RNA binding by human eIF4H | 290,000 compounds, 0.94% hits | inhibition, % at 35 µM | eIF4H fluorescence polarization binding assay | AID 2012;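 active = 50% or more with normal probe brightness, or confirmed in later tests; inconclusive = above 50% with abnormal brightness, or retests that disagree; inactive = below 50% or failed in later tests; about a fifth of its hits are not listed in these tables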;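 also: calls also rest on retests at 20 µM and on dose response follow-up; 0% = protein and probe with vehicle and 100% = probe without protein; strong numbers were not always called active; many hits fall short of the cut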
PABP polyA inh – PABP-poly(A) binding inhibition. P11940. PABP-poly(A) RNA binding, fluorescence polarization. inhibition, % at 35 µM. 290,000 compounds, 1% hits;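 active = 50% or more with normal probe brightness, or confirmed in later tests; inconclusive = above 50% with abnormal brightness, or retests that disagree; inactive = below 50% or failed in later tests; about a fifth of its hits are not listed in these tables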;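 also: calls also rest on retests at 20 µM and on dose response follow-up; controls were probe without protein and protein plus probe with vehicle; some compounds called inactive have numbers as strong as hits; many hits fall short of the cut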
Target sequence (P11940 whole entry, looked up): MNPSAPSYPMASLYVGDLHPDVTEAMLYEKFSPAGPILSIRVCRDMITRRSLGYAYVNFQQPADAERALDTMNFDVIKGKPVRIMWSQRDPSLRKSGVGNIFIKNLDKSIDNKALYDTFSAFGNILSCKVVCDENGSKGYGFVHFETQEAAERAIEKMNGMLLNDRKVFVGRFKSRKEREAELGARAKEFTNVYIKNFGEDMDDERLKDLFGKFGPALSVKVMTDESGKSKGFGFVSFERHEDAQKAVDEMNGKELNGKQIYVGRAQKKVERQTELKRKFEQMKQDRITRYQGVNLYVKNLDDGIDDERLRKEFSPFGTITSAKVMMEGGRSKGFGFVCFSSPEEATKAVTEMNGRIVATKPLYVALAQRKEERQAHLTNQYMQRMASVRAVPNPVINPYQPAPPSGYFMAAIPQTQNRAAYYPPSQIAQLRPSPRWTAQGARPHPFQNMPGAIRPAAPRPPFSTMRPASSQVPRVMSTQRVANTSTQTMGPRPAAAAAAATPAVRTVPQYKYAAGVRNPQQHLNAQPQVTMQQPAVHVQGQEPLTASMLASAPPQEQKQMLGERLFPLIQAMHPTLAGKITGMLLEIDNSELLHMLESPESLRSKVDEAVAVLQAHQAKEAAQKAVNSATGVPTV
HIV Env fusion – HIV envelope-mediated fusion inhibition. 360,000 compounds, 1.1% hits. inhibition, % at 12.3 µM. HeLa-JRFL Env/CEM21 cell fusion, luciferase;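 active = mean replicate inhibition score of at least 50 and every replicate individually at or above 50; inconclusive = only one of the two criteria met; inactive = mean below 50 and not all replicates reaching 50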;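 also: 0% = plate neutral controls and 100% = maraviroc near 300 nM; one replicate is shown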
UUG fidelity – alters start codon recognition fidelity in yeast. 350,000 compounds, 0.13% hits. S. cerevisiae UUG-firefly luciferase reporter, luminescence/redox ratio. activity score, % at 18.7 µM;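 active = replicate mean at a twofold rise or more, about +100% in these data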;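 also: firefly luciferase made from a UUG start codon reports start codon fidelity; reporter light over untreated wells divided by growth signal over untreated wells; some hits fall short of that in this replicate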
Rce1 inhib – blocks yeast Ras-converting enzyme | Q03530 | yeast membranes, quenched prenylated peptide cleavage fluorescence | calls only | 290,000 compounds, 0.27% hits | AID 2563;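 active = fall in fluorescence gain of 50% or more versus controls, with final raw signal at or below 3038400; inconclusive = same 50% fall but final raw signal above 3038400; inactive = fall in fluorescence gain under 50%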;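 also: plate controls were neutral control wells for no effect and wells lacking membranes for full effect; tested at 10 µM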
CSC inhib – cancer stem cell inhibition; inhibition, % at 7.5 µM; cancer stem cell-like cells viability, luminescence; 300,000 compounds, 1.1% hits;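 active = mean at 75% or more and at least half the replicates too; inconclusive = mean and replicates disagree; tested in HMLE shEcad cells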;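 also: 0% = median of negative and 100% = median of positive control wells; the first replicate is given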
MT1-MMP act inh – inhibitors of human MT1-MMP activation; HT1080 RFP-PRO-GFP cells, GFP/RFP ratio fluorescence, overnight; percent of plate control window, DMSO zero; GFP/RFP ratio change, % at 20 µM; 360,000 compounds, 0.061% hits; P50281;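 active = GFP/RFP ratio change of at least 30% with cell ATP level not reduced by more than half and red fluorescence within 50% of control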; also: strong numbers were not always called active
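Read-out: GFP/RFP fluorescence ratio; Test system: RFP-PRO-GFP reporter HT1080 cells; Compound dosing: single-point 20 µM compound, 1% DMSO; Times: overnight compound exposure at 37 °C.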
eIF4H FP inh retest – recorded beside eIF4H FP inh, whose call it bears; inhibition, %; compound at 20 µM; confirmation average;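 mean of two retest wells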
PABP polyA inh retest – also measured in PABP polyA inh; calls as there; inhibition, %; compound at 20 µM; confirmation repeats;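 mean of two retest wells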
MT1-MMP act inh RFP – recorded beside MT1-MMP act inh, whose call it bears; RFP signal change, %; measured here: RFP expression control read;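 0 = vehicle wells; hits needed this value within 50% of zero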
Starred values were filed as active, the others as inactive; i = inactive; u = inconclusive; x = no result given. Some of the compounds tested, so the mix of outcomes need not match the whole.

SMILES	eIF4H FP inh	PABP polyA inh	HIV Env fusion	UUG fidelity	Rce1 inhib	CSC inhib	MT1-MMP act inh	MT1-MMP act inh RFP	others
C/C(=N\NC(=O)c1ccoc1C)c1ccccc1O	6	6	-34	-19	x	-2	2	0
CCOC(=O)Cn1nnc2c(sc3nc4c(c(-c5ccc(Cl)cc5)c32)CCC4)c1=O	1	-6	x	-21	i	6	-7	-14
O=c1ccc(-c2ccccc2)nn1Cc1ccc(Cl)cc1	x	x	-6	-10	i	-3	2	-6
CCC(Sc1nc2c(cnn2-c2ccc(Cl)cc2)c(=O)[nH]1)C(=O)OC (stereo not drawn)	-10	-10	13	11	i	0	3	-1
O=C(COC(=O)c1cnccn1)c1ccc(OC(=O)c2ccccc2)cc1	4	-3	x	-13	i	-10	3	4
C=CCc1ccccc1OCC(O)CN1CCN(CCO)CC1 (stereo not drawn)	3	52	-12	10	i	-6	1	2	eIF4H FP inh retest=-4;PABP polyA inh retest=12
Cc1cccc(NC(=O)c2ccc(N3CCCCC3)c([N+](=O)[O-])c2)n1	-8	3	-135	x	i	0	5	-9
Cc1ccccc1C(=O)NC(=S)NC1CC1	-18	2	2	-25	i	-9	2	-3
COc1ccc2cc(C(c3nnnn3CC3CCCO3)N3CCOCC3)c(=O)[nH]c2c1 (stereo not drawn)	4	11	-22	-14	i	-13	-7	5
NS(=O)(=O)c1ccc(CNC(=O)/C=C/c2ccc(S(=O)(=O)N3CCOCC3)cc2)cc1	-4	8	11	-19	i	8	5	0

Compounds listed so far containing an NH in an aromatic ring, in the order listed:
SMILES	eIF4H FP inh	PABP polyA inh	HIV Env fusion	UUG fidelity	Rce1 inhib	CSC inhib	MT1-MMP act inh	MT1-MMP act inh RFP	others
CCC(Sc1nc2c(cnn2-c2ccc(Cl)cc2)c(=O)[nH]1)C(=O)OC (stereo not drawn)	-10	-10	13	11	i	0	3	-1
COc1ccc2cc(C(c3nnnn3CC3CCCO3)N3CCOCC3)c(=O)[nH]c2c1 (stereo not drawn)	4	11	-22	-14	i	-13	-7	5

New compounds follow
SMILES	eIF4H FP inh	PABP polyA inh	HIV Env fusion	UUG fidelity	Rce1 inhib	CSC inhib	MT1-MMP act inh	MT1-MMP act inh RFP	others
O=C(Cc1n[nH]c(=O)[nH]c1=O)N/N=C/c1ccccc1	-4	5	19	-15	i	-9	-2	0
CCOC(=O)C1CCN(C(=O)c2ccc(C)c(S(=O)(=O)N3CCCC3)c2)CC1	6	-5	-15	-10	i	0	2	3
COc1cc(/C=C/C(=O)O)cc(S(=O)(=O)Nc2cc(S(=O)(=O)N3CCCCC3)ccc2Cl)c1OC	x	x	-6	7	x	x	0	3
CC1CN(S(=O)(=O)c2ccc(CN3C(=O)c4cccnc4C3=O)s2)c2ccccc2O1 (stereo not drawn)	2	-3	-2	-19	i	8	-3	-2
Cc1ccc(S(=O)(=O)CC2CSc3nc4ccccc4n32)cc1 (stereo not drawn)	-6	-6	x	x	i	6	10	-21
CC(=O)Nc1sc(-c2ccccc2)nc1-c1ccccc1	-2	-2	-9	x	i	-17	5	-2
CCCc1cc(NC(=O)COC(=O)c2nccnc2N)n(-c2ccccc2)n1	x	x	2	-3	x	-8	-6	3
Cc1ccc(C)c(NC(=O)CCN2CCOCC2)c1	-2	4	-36	-12	i	-5	-5	-2
C=CCc1cccc2cc(C(=O)N3CCN(C(=O)c4ccco4)CC3)c(=O)oc12	0	2	11	1	i	-3	-1	2
CC(=O)c1c[nH]c(C(=O)NCc2ccccc2Cl)c1	0	9	2	-18	i	-7	4	1
CC1(C)CC(=O)/C(=C(\O)Cc2ccccc2)C(=NCCCCCC(=O)O)C1	5	-13	18	11	i	x	-7	3
CCOc1cc(S(=O)(=O)NCCc2cccc(C)c2)c(OCC)cc1-n1cnnn1	6	4	-15	-17	x	x	4	-3
CN(C)P(=O)(Nc1cccc2ccccc12)Nc1cccc2ccccc12	x	x	12	-3	x	-11	-1	-15
CC1(c2ccccc2Cl)NC(=O)N(CC(=O)N2CCc3ccccc3C2)C1=O (stereo not drawn)	x	x	-6	-27	x	x	0	1
CCOc1ccc(S(=O)(=O)N2CCN(CN3C(=O)CC4(CCCC4)C3=O)CC2)cc1	x	x	11	-12	x	x	0	3
O=[N+]([O-])c1c(Nc2cccc(O)c2)cc(Cl)c2nonc12	-5	2	-111	-31	i	69	4	-9
Cc1ccc(C)c(CC(=O)N2CCCC(c3cc(C(=O)NCc4cccnc4)no3)C2)c1 (stereo not drawn)	x	x	1	-19	x	x	1	-3
COc1cccc(/C=C/C(=O)c2cccc([N+](=O)[O-])c2)c1OC	24	-8	6	x	i	-2	-3	-7
Cc1cccc(OCC(=O)Nc2ccc3c(c2)C(=O)NC3=O)c1	-1	-16	-1	-33	i	-9	1	1
Cc1cc(C)cc(NC(=O)Nc2ccc3c(c2)N(C)C(=O)CS3)c1	-7	-13	9	-12	i	19	0	-6

Four entries picked at random from those above:
SMILES	eIF4H FP inh	PABP polyA inh	HIV Env fusion	UUG fidelity	Rce1 inhib	CSC inhib	MT1-MMP act inh	MT1-MMP act inh RFP	others
Cc1cccc(NC(=O)c2ccc(N3CCCCC3)c([N+](=O)[O-])c2)n1	-8	3	-135	x	i	0	5	-9
O=c1ccc(-c2ccccc2)nn1Cc1ccc(Cl)cc1	x	x	-6	-10	i	-3	2	-6
CN(C)P(=O)(Nc1cccc2ccccc12)Nc1cccc2ccccc12	x	x	12	-3	x	-11	-1	-15
O=C(COC(=O)c1cnccn1)c1ccc(OC(=O)c2ccccc2)cc1	4	-3	x	-13	i	-10	3	4

Later entries
SMILES	eIF4H FP inh	PABP polyA inh	HIV Env fusion	UUG fidelity	Rce1 inhib	CSC inhib	MT1-MMP act inh	MT1-MMP act inh RFP	others
Cc1cc(C)cc(NC(=O)C2C3C=CC4(O3)C2C(=O)N(CCN2CCCCC2)C4C(=O)NC2CCCCC2)c1 (stereo not drawn)	-6	-1	-1	15	i	-8	-3	0
COc1ccc(/C=N/NC(=O)c2ccc(=O)n(C)c2)cc1OC	-7	-13	4	x	i	x	4	8
CC(Oc1cc2oc(=O)c3c(c2cc1Cl)CCC3)C(=O)NCCCN1CCOCC1 (stereo not drawn)	-2	-4	0	15	i	-3	5	8
Cc1cc(C(=O)CSc2nc(N)cc(N)n2)c(C)n1C1CC1	81*	-9	14	x	i	-13	-3	-1	eIF4H FP inh retest=99*;PABP polyA inh retest=13
CCc1ccc(NC(=O)C(=S)NC2CCCCC2)cc1	0	-15	-65	-26	i	x	-5	-6
CN(C)c1oc(-c2ccccc2)nc1C#N	-10	1	-24	x	i	-5	1	2
CC(C)(C)NC(=O)C(c1ccc(F)cc1)N(Cc1ccccc1Cl)C(=O)c1ccn[nH]1 (stereo not drawn)	7	-2	2	x	i	-4	-3	1
CN(C(=O)COC(=O)c1cc(-c2ccco2)nc2ccccc12)C1CCS(=O)(=O)C1 (stereo not drawn)	88*	78*	-17	-8	i	1	-7	0
CCCN=C1CC(C)(C)CC(=O)/C1=C(/O)CCC	-1	3	-17	x	i	x	3	2
COc1ccc(OC)c(/C=N/NC(=O)c2ccc(N(C)S(=O)(=O)c3ccccc3)cc2)c1	-5	6	3	2	i	x	0	4
CC(=O)c1cc(F)c(N2CCN(C(=O)Cc3ccccc3)CC2)cc1C	5	8	x	-9	i	-1	6	-7
O=C(CSc1nccc(-c2cccs2)n1)Nc1cccc(Cl)c1	0	1	5	9	i	21	5	1
O=C(Nc1ccc(C(=O)N2CCOCC2)cc1)c1cc(-c2cccnc2)nc2ccc(Br)cc12	-10	-17	10	x	i	13	-3	-6
Cc1ccc(NC(=O)CCNC(=O)c2ccc([N+](=O)[O-])cc2)cc1C	5	-4	-6	-10	i	-7	2	1
Cc1ccccc1NC(=O)CSc1nccn1Cc1ccco1	x	x	-11	-11	x	x	-1	4
C=C(C)Cc1c(C)c(C#N)c2nc3ccccc3n2c1NCCCN(C)C	15	8	-10	-11	i	-24	2	2
COCCNC(=O)C1CCC(CNS(=O)(=O)c2ccc3c(c2)CC(C)N3C(=O)C2CC2)CC1 (stereo not drawn)	7	9	4	13	i	-7	1	5
CC(=O)c1ccc([N+](=O)[O-])cc1	x	x	x	-13	x	-10	0	8
CCCCNC(=O)CSc1nc2ccccc2n1S(=O)(=O)c1ccc(Br)cc1	0	20	x	x	i	-3	2	0
CC(=O)Nc1ccc(NC(=O)CSc2ccc3nnc(CCNC(=O)c4ccccc4)n3n2)cc1	-4	-1	-5	x	i	0	-5	4

4 compounds already listed, ordered by formula weight, smallest number first:
SMILES	eIF4H FP inh	PABP polyA inh	HIV Env fusion	UUG fidelity	Rce1 inhib	CSC inhib	MT1-MMP act inh	MT1-MMP act inh RFP	others
CCCN=C1CC(C)(C)CC(=O)/C1=C(/O)CCC	-1	3	-17	x	i	x	3	2
C/C(=N\NC(=O)c1ccoc1C)c1ccccc1O	6	6	-34	-19	x	-2	2	0
CC1(C)CC(=O)/C(=C(\O)Cc2ccccc2)C(=NCCCCCC(=O)O)C1	5	-13	18	11	i	x	-7	3
COc1ccc(OC)c(/C=N/NC(=O)c2ccc(N(C)S(=O)(=O)c3ccccc3)cc2)c1	-5	6	3	2	i	x	0	4

The listing continues.
SMILES	eIF4H FP inh	PABP polyA inh	HIV Env fusion	UUG fidelity	Rce1 inhib	CSC inhib	MT1-MMP act inh	MT1-MMP act inh RFP	others
Cc1cccc(S(=O)(=O)NCCc2ccccc2)c1	-2	-10	1	x	i	-15	3	4
O=C(NCC(=O)N1CCC2(CC1)NCCc1[nH]cnc12)c1cccc(Cl)c1	x	x	-4	-11	i	-2	0	0
CN(C)c1ccc(/C=C/c2cccc[n+]2[O-])cc1	u	u	-9	-21	x	-8	-8	7
COc1cccc(C(=O)Nc2ccc(S(=O)(=O)Nc3cc(C)nc(C)n3)cc2)c1	1	3	-6	x	i	-8	2	0
Cc1cc(C)n2cc(CSc3nnc(-c4ccccc4)o3)nc2n1	22	13	x	-21	i	-19	1	1
Cc1c(C(=O)N/N=C/c2ccncc2)no[n+]1[O-]	-5	3	13	-7	i	-5	-1	2
CCC(c1nnnn1C(C)(C)CC)N(CCCO)Cc1cc2cc(C)cc(C)c2[nH]c1=O (stereo not drawn)	-2	9	x	-4	i	x	2	5
COc1ccc2[nH]c(C)c(-c3csc(N)n3)c2c1	3	5	-19	0	i	-9	7	17
O=C(COC(=O)C1CC1)Nc1c(Cl)cccc1C(F)(F)F	x	x	1	-21	i	3	1	0
O=C(Cn1ncc2c(=O)oc3ccccc3c21)N1CCCN(Cc2ccccc2F)C1	-11	-13	26	-15	i	x	0	4
O=C(NCc1ccccc1)c1cccc(S(=O)(=O)N2CCOCC2)c1	-8	-3	x	-6	i	12	0	2
CCN(CC)Cc1c(C(=O)OC)nnn1-c1nonc1N	-8	-3	x	x	i	-12	1	2
Cc1ccc(C(=O)NC2CC(C)(C)NC(C)(C)C2)cc1	-13	9	-5	-26	x	5	4	3
COCc1nnc(NC(=O)C(C)C)s1	0	1	x	-14	i	11	6	9
CCCn1nnnc1NCc1c(F)cccc1Cl	-1	-9	16	x	i	9	2	7
O=c1[nH]cc(S(=O)(=O)N2CCOCC2)c(=O)[nH]1	x	x	-16	-8	i	3	2	-3
Cc1ccc(CCNC(=O)C2CC(c3ccc(C(F)(F)F)cc3)=NO2)cc1 (stereo not drawn)	0	-17	-28	-20	i	-5	3	0
Cc1cccc(N=Nc2c(C)c(C#N)c(O)[nH]c2=O)c1	u	u	-35	x	i	-6	-92	6
